Vif TR-FRET = HIV-1 Vif–A3G interaction blockers – biochemical, TR-FRET, GST-Vif 1-94, biotin-A3G peptide, dose response retest, primary screen (AID 1117319); TR-FRET GST-Vif / biotin-A3G peptide binding; higher % means a stronger effect; test concentration not given here; strong numbers were not always called active; one-dose inhibition, %; IC50 in µM for titrated hits; 0.57% of 260,000 active;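 active = above the screen mean plus three standard deviations and confirmed in dose response; inconclusive = results disagree or hit not tested in dose response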;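 note: Vif residues 1-94 fused to GST binding biotinylated APOBEC3G peptide 110-148; 0% = full assay without inhibitor and 100% = GST in place of GST-Vif; retest series ran down from 100 µM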
FGF22 binding = binders of recombinant human FGF22 by thermal shift; SYPRO orange fluorescence; percent of sucrose octasulfate shift, DMSO zero; calls only at 9.99 µM; 1.5% of 340,000 active; AID 651658;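 active = melting point raised past a set limit in the mean and every replicate; inconclusive = no clear call; three in four hits are not shown here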
Target sequence (Q9HCT0 whole entry, looked up): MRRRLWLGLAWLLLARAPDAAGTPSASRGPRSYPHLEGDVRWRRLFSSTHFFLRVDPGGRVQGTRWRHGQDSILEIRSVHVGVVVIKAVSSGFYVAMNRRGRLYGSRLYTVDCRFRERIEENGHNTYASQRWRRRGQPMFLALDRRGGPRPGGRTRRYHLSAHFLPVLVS
RanGTP-Imp inh = inhibitors of RanGTP-importin-beta interaction, primary screen, biochemical, FRET, CFP-Ran, YFP-importin-beta, homogeneous; cell-free CFP-Ran/YFP-importin-beta FRET ratio; AID 2216; 1.1% of 300,000 active; inhibition, % (no concentration beside the values);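 active = most replicates above 15%; inconclusive = exactly half above 15%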;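 note: 0% = DMSO wells and 100% = Ran loaded with GDP instead of GTP; wells of about 40 µL received 100 nL stock; the first replicate is given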
Ecoli growth = blocks Escherichia coli growth. OD600, 23 h; hits give low values. OD600 absorbance (concentration not given with the values). 0.21% of 330,000 active;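 active = OD600 absorbance below the run mean of sample wells minus 3.6 SD, in any replicate, cut at about 0.56 in these data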;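 note: stock transfer was 300 nL into about 60 µL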
MLL AF4-AF9 inh = MLL-AF4/AF9 protein interaction inhibition. inhibition, % at 10 µM. P42568. 0.47% of 350,000 active. AlphaScreen, biotin-AF4 peptide binding to FLAG-AF9;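 active = every replicate reaching a set inhibition limit, whatever the replicate mean, cut at about 25% in these data; inconclusive = mean inhibition reaches that limit but some replicates miss it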;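 note: 0% = plate neutral control median and 100% = total signal loss; the record names both 10 and 1 µM as test concentration; the first replicate is given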
UCH37 inh = human UCH37 deubiquitinating enzyme inhibition; purified proteasome/UCH37, Ub-AMC cleavage fluorescence; inhibition, % (test concentration not listed); Q9Y5K5; 0.33% of 330,000 active;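 active = mean of two replicates above 20%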;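 note: 0% = compound-free wells with enzyme and 100% = wells lacking proteasome; stock transfer was 100 nL into about 20 µL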
Target sequence (Q9Y5K5 whole entry, looked up): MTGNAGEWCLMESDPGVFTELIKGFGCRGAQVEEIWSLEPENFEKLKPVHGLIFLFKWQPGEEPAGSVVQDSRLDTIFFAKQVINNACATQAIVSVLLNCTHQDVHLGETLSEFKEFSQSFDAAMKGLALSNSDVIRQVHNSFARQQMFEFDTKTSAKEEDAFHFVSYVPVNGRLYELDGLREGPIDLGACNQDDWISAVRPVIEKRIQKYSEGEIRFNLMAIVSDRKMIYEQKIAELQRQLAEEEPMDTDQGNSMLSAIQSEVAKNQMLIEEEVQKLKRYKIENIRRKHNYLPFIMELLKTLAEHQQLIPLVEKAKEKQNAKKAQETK
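Signal – fluorescence, ex 355 nm, em 460 nm · System – Proteasome-bound UCH37 · Input – 0.15 nM proteasome as dispensed · Timing – 30 min preincubation with enzyme, 25 min cleavage at room temperature · Read-out basis – percent inhibition of cleavage signal versus uninhibited and no-proteasome wells · Medium – Tris-HCl pH 7.4 with ATP-MgCl2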
HNF4A DNA FP = change in binding of human HNF4 alpha to DNA. 0.3% of 360,000 active. P41235. HNF4a-FITC DNA binding, fluorescence polarization, 1 h. activity change, % at 10 µM. AID 1224865; in the data active = activity change above about 30%, passing the limit was not always enough;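 note: controls were the assay level and a saturating level of protein; the project sought stronger binding though the title names inhibitors; some compounds called inactive have numbers as strong as hits; positive values seem to mean higher polarization but the record does not say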
Target sequence (P41235 whole entry, looked up): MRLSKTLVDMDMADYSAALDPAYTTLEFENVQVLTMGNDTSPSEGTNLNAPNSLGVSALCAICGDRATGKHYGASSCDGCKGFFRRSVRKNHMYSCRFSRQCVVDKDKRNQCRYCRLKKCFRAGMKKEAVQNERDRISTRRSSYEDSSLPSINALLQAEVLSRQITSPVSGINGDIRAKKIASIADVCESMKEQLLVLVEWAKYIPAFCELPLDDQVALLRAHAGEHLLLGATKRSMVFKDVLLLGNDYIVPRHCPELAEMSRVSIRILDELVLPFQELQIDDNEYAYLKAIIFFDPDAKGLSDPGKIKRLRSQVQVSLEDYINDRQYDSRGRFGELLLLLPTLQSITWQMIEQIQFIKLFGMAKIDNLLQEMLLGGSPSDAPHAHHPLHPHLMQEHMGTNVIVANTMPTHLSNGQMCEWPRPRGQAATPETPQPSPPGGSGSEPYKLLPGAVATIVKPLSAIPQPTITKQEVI
Starred values were filed as active, the others as inactive; i = inactive; ? = inconclusive; . = no result given. This is a subset; count on the stated rates, not on these rows.

Vif TR-FRET	FGF22 binding	RanGTP-Imp inh	Ecoli growth	MLL AF4-AF9 inh	UCH37 inh	HNF4A DNA FP	mol
14%	.	-3.1	0.73	.	15	1.4	CCCCOc1ccc(/C(O)=C2/C(=O)C(=O)N(CCN(C)C)C2c2ccc(O)c(OC)c2)cc1 (centres undefined)
-7%	i	.	.	1.0	.	3.0	COc1ccc(S(=O)(=O)N2C[C@H]3CON(C)[C@H]3C[C@H]2c2cccc(Br)c2)cc1
11%	i	2.2	0.72	-8.3	4.3	-1.8	Cc1ccc(-c2csc(NC(=O)C3=NN(C4CCS(=O)(=O)C4)C(=O)CC3)n2)cc1 (centres undefined)
14%	.	-11	0.69	.	-3.4	-0.2	Cn1c(CN2CCOCC2)nnc1SCC(=O)NC1CCCCC1
.	i	0.9	0.7	6.6	6.4	-5.3	COc1ccc(OC)c(CNc2ccc([N+](=O)[O-])cc2C)c1
.	i	-2.1	0.71	-5.1	3.9	0.5	COc1ccccc1N1CCN(C(=O)c2ccc(NC3=NC4CS(=O)(=O)CC4S3)cc2)CC1 (centres undefined)
.	i	0.1	0.69	1.4	4.8	-1.3	O=C(NC1=NCCS1)c1ccc(Cl)c(S(=O)(=O)N2CCc3ccccc32)c1
0%	i	-2.5	0.75	0.5	4.5	2.3	O=C(NC1CCCc2ccccc21)C1CCCN(S(=O)(=O)c2cnc[nH]2)C1 (centres undefined)
.	.	2.5	0.67	-3.0	0.0	-2.4	Cc1cccc(C)c1N(CC(=O)NC1CCCCC1)C(=O)c1csnn1
-98%	i	1.6	0.74	0.7	-14	-4.1	COc1cc(OC)cc(C(=O)N=c2sc3ccccc3n2C)c1
.	i	.	0.69	-1.6	-1.9	1.9	C[C@H]1CN=C(N(C)C)N1CCc1cccc(F)c1
0%	i	-3.9	0.71	-1.7	4.7	-2.2	CN(C)S(=O)(=O)c1ccc(C(=O)Nc2nnc(-c3ccco3)o2)cc1
5%	i	-1.1	.	5.4	.	0.8	Cc1ccc(C(=O)N2CCc3ccccc32)cc1[N+](=O)[O-]
.	i	.	0.73	-21	6.0	0.1	Clc1ccc2nc(CSc3nnc(-c4c[nH]c5ccccc45)o3)cn2c1
-8%	.	1.4	0.74	.	-0.2	2.0	O=C1NC2(NN1c1ccccc1)C1CC3CC(C1)CC2C3 (centres undefined)
-6%	i	?	0.68	-1.2	5.5	-0.2	O=C(NCc1ccco1)/C(=C\c1cccs1)NC(=O)c1ccco1
3%	i	-1.3	0.72	11	0.6	3.8	Cc1cc(C)cc(N=C2SC(CC(=O)Nc3ccccc3)C(=O)N2CCN2CCOCC2)c1 (centres undefined)
.	i	0.6	0.67	-11	-413	1.1	COc1ccc(NC(=O)c2sc3nc(C)cc(C)c3c2N)cc1
-1%	i	2.9	0.67	-0.6	3.7	3.2	Cc1cccc(N(C)c2cc(C)nc3ncnn23)c1
2%	.	-0.3	0.68	.	-4.3	-0.9	Cc1ccc(S(=O)(=O)Nc2ccccc2C(=O)OC(C)C(=O)Nc2ccc3ccccc3c2)cc1[N+](=O)[O-] (centres undefined)
-12%	i	-1.1	0.7	-2.2	1.7	-3.4	CS(=O)(=O)NNC(=O)CN1C(=O)C2C3C=CC(C3)C2C1=O (centres undefined)
.	i	4.4	0.65	1.0	0.6	-0.3	Cc1nc(NC(=O)c2ccccc2)sc1C
1%	i	-2.2	0.62	-1.3	-2.3	3.9	CC(C)CN(C(=O)c1ccc(S(=O)(=O)N2CCCC2)cc1)C1CCS(=O)(=O)C1 (centres undefined)
?	i	.	0.69	-8.6	3.1	-0.8	CN(CCOc1ccc(Cl)cc1)C(=O)c1ccccc1SCC(=O)N1CCCC1
-2%	.	5.8	0.69	.	1.3	-0.5	Cc1ccc2oc(Nc3nc(C)cc(C)n3)nc2c1
-6%	.	55*	0.67	.	-3.5	1.1	COC(=O)c1ccc(C(=O)OC)c(NC(=S)N2CCCCC2)c1
8%	.	2.5	0.74	.	2.6	-3.6	COc1ccccc1N1CCN(C(=O)c2cc(-c3cccc(Cl)c3)on2)CC1
9%	i	?	0.71	-1.0	5.9	-2.4	CN(C)c1nc(OCCNC(=O)Nc2ccc(Cl)cc2)nc(N(C)C)n1
4%	.	-0.1	0.69	-3.4	2.7	2.2	O=C(CN1C(=O)NC2(CCCC2)C1=O)OCc1ccc(Cl)c(Cl)c1
.	i	-2.4	0.65	4.2	1.6	0.6	COc1cc(NC(=S)NCCCN2CCOCC2)c(OC)cc1NC(=O)c1ccco1
-2%	i	-1.1	0.66	-5.1	2.4	-0.8	Cc1cccc(/C(N)=N/OC(=O)Cc2cccc3ccccc23)c1
7%	i	-4.0	.	-0.2	.	-7.2	COc1ccccc1/C=N/NC(=O)c1cc2c(ccc3ccccc32)o1

The list goes on, overlapping the part above by two compounds.
Vif TR-FRET	FGF22 binding	RanGTP-Imp inh	Ecoli growth	MLL AF4-AF9 inh	UCH37 inh	HNF4A DNA FP	mol
-2%	i	-1.1	0.66	-5.1	2.4	-0.8	Cc1cccc(/C(N)=N/OC(=O)Cc2cccc3ccccc23)c1
7%	i	-4.0	.	-0.2	.	-7.2	COc1ccccc1/C=N/NC(=O)c1cc2c(ccc3ccccc32)o1
-2%	.	1.9	0.75	.	4.4	-0.1	O=C(CSc1n[nH]c(=O)n1C1CC1)Nc1cc(Cl)ccc1Oc1ccccc1
0%	i	?	.	3.3	.	-3.4	Cc1occc1C(=O)N/N=C/c1ccc2c(c1)OCO2
.	i	3.3	0.65	-5.1	-1.4	3.3	Cc1cc(=O)n2nc(N3CCCC(C(=O)Nc4ccc(C)c(C)c4)C3)sc2n1 (centres undefined)
7%	i	.	0.7	-3.3	4.4	3.2	CC(OC(=O)c1ccc([N+](=O)[O-])cc1)C(=O)NCC1CCCCC1 (centres undefined)
1%	.	1.2	0.6	.	1.6	4.7	COc1ccc(-c2cc(C(=O)NCc3cccnc3)no2)cc1
?	.	1.2	0.76	.	-62	11	COc1nc(-c2ccc(Cl)cc2)ccc1-c1noc(-c2cccs2)n1
12%	.	-4.5	0.62	.	0.0	-1.3	O=C(NCC(c1cccnc1)N1CCN(c2ccccc2)CC1)OCc1ccccc1 (centres undefined)
-3%	.	.	0.68	2.8	-2.9	-0.6	COc1cc2c(cc1OC)CN(C(=S)Nc1ccc(OC(F)F)cc1)CC2
.	i	.	.	-2.4	.	0.8	O=C(NCc1ccccc1)c1cccc(NC(=O)C2CCC2)c1
.	.	5.2	0.7	.	2.1	-3.2	O=C(NC1CCCCC1)c1cccc(COCC(F)(F)F)c1
19%	i	-2.8	.	17	.	5.4	CCC1S/C(=N/N=C/c2ccco2)N(Cc2ccccc2)C1=O (centres undefined)
.	i	-1.6	.	-0.5	.	-3.4	Cc1ccc(S(=O)(=O)N2CCOCC2)cc1NC(=O)CN(C)C1CCS(=O)(=O)C1 (centres undefined)
28%	i	4.0	0.73	34*	6.5	-1.5	COc1ccc(Nc2c([N+](=O)[O-])ccc3c2=NC2(CCCCC2)N=3)cc1
.	i	-1.6	0.67	-2.4	3.0	4.7	CC(NS(=O)(=O)c1ccc2c(c1)C(=O)c1cc(S(=O)(=O)NC(C)C(=O)O)ccc1-2)C(=O)O (centres undefined)
-4%	.	8.1	0.71	.	1.5	-2.1	O=C(O)c1cc(Cl)nc2ccccc12
25%	.	-0.4	0.8	.	4.8	-3.0	CCOC(=O)c1oc2c(O)c(O)ccc2c(=O)c1-c1nncn1-c1ccccc1
15%	.	1.6	0.64	.	0.9	1.2	COc1ccc(NC(=O)CN2C(=O)C(C)Oc3ccccc32)cc1 (centres undefined)
-5%	i	.	0.67	-1.4	0.3	-4.6	O=C(Nc1ccc(Cl)c(S(=O)(=O)N2CCOCC2)c1)c1cccs1
.	i	.	.	-0.2	.	0.5	O=C(CSCC(=O)OCC(=O)N1CCN(C(=O)c2ccco2)CC1)Nc1ccc(Cl)cc1
-5%	i	0.6	0.72	-4.7	2.1	-2.7	COc1ccc(C(=O)COC(=O)c2nn(C)c(=O)c3ccccc23)c(OC)c1
-10%	.	-0.3	0.61	.	-0.1	-2.4	CCC(=O)c1ccc(N2CCN(C(=O)c3ccc(Br)cc3)CC2)c(F)c1
-3%	.	0.9	0.72	.	-8.9	1.8	O=C(Nc1ccc2nsnc2c1)c1cccs1
0%	i	3.1	0.71	6.6	2.3	-1.5	CCn1c(-c2ccc3[nH]c(C)c(C)c3c2)n[nH]c1=S
-18%	i	3.5	0.68	-2.9	6.0	0.3	O=C(Nc1cccc(S(=O)(=O)Nc2ccccc2F)c1)c1ccc2ccccc2n1
.	i	.	0.66	1.5	2.0	3.9	COc1ccc(NS(=O)(=O)c2cc(NC(=O)CC(C)(C)C)ccc2N2CCCC2)cc1
-14%	.	-2.4	0.71	.	5.3	-3.1	CCOC(=O)c1c(-c2ccccc2)csc1NC(=O)C1CCCO1 (centres undefined)
0%	.	1.4	0.74	.	1.5	1.2	Cc1nn(Cc2ccccc2Cl)c2sc(C(=O)NCc3ccc4c(c3)OCO4)cc12
.	.	3.6	.	0.9	.	-1.8	Oc1ccc(/C=N/N2CCN(C3c4ccccc4-c4ccccc43)CC2)c(O)c1
.	i	4.8	.	-1.7	.	-0.8	COc1ccccc1C(=O)NCC(=O)N/N=C/c1cc(Br)ccc1OCc1ccccc1
.	i	.	.	-1.1	.	2.2	O=C(Nc1ccc(F)cc1)c1ccccc1NC(=O)C1CCCCC1C(=O)O (centres undefined)
.	i	-7.1	0.7	-1.8	3.7	8.6	Cc1cccc(NC(=O)CNC(=O)COC(=O)CCS(=O)(=O)c2ccccc2)c1C
.	i	3.0	0.65	-0.3	1.8	5.9	COc1ccc(C)cc1NC(=O)CCNS(=O)(=O)c1cccc(C(F)(F)F)c1

Full records, quoted from the list. Screens in order: Vif TR-FRET	FGF22 binding	RanGTP-Imp inh	Ecoli growth	MLL AF4-AF9 inh	UCH37 inh	HNF4A DNA FP
Entry for COc1ccc(NS(=O)(=O)c2cc(NC(=O)CC(C)(C)C)ccc2N2CCCC2)cc1 = .	i	.	0.66	1.5	2.0	3.9
Entry for Oc1ccc(/C=N/N2CCN(C3c4ccccc4-c4ccccc43)CC2)c(O)c1 = .	.	3.6	.	0.9	.	-1.8
Entry for COc1ccc(C)cc1NC(=O)CCNS(=O)(=O)c1cccc(C(F)(F)F)c1 = .	i	3.0	0.65	-0.3	1.8	5.9

Following part:
Vif TR-FRET	FGF22 binding	RanGTP-Imp inh	Ecoli growth	MLL AF4-AF9 inh	UCH37 inh	HNF4A DNA FP	mol
-26%	i	-1.1	0.72	1.9	4.8	0.3	CCOC(=O)c1c(NC(=S)N2CCOCC2)sc(C)c1C
.	i	2.7	0.7	0.4	0.4	3.3	COc1cccc(CNS(=O)(=O)c2cc(CN3C(=O)c4cccnc4C3=O)ccc2OC)c1
.	i	1.9	0.7	4.6	3.1	1.4	COc1ccc(S(=O)(=O)N2CCCCC2)cc1NC(=O)CN(C)C1CCCCC1
0%	i	4.1	0.65	-13	-1.3	3.6	C=C(C)CN(CC)C(=O)CN1C(=O)NC2(CCCc3ccccc32)C1=O (centres undefined)
-2%	i	-4.8	0.73	-0.8	2.5	-2.1	COc1ccc(NC(=O)CCCn2cc([N+](=O)[O-])cn2)cc1
16%	i	.	.	-3.7	.	3.5	Nc1ccc(CCCC(=O)NCc2cccnc2)cc1
4%	i	-4.3	0.68	-6.8	0.6	2.6	COC(=O)NNC(=O)c1ccc(Cl)cc1Cl
10%	.	3.0	0.73	.	8.4	2.3	CC1(C)OC(=O)C(=CNc2cccc(C(=O)O)c2)C(=O)O1
.	.	4.6	0.69	.	-26	-2.6	CC(=O)Nc1ccc(S(=O)(=O)NNC(=O)c2ccc(S(=O)(=O)N3CCCCC3)cc2)cc1

Screening results from PubChem BioAssay.
